# CDC25B-CDK2 inh: human CDC25B-CDK2/CyclinA binding inhibition; actives 0.72% (n = 94,000); HTRF CDC25B-CDK2/CyclinA binding, anti-His/anti-Flag; hits give high values; z-score (no concentration beside the values);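 note: score is relative to mean and SD of negative controls; strong numbers were not always called active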
# HIV TAR-Tat: HIV-1 TAR-Tat binding disruption; HIV-1 TAR RNA, Tat peptide displacement FRET; hits give high values; z-score (concentration not given with the values); actives 0.6% (n = 100,000);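 note: score is relative to mean and SD of negative controls; some compounds called inactive have numbers as strong as hits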
# The depositor's hits bear a star; · = no result given.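 Rule for the calls: active = z-score from 3 up in half or more of its runs; inactive = the rest.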
# Order of values – CDC25B-CDK2 inh	HIV TAR-Tat
- Cc1ccc(F)cc1Nc1nc2ccccc2n2c(C)nnc12
→ -0.91	-1.3
- CSc1nc(-c2ccco2)nn1C(=O)c1ccc(C)cc1
→ 1.4	-1.9
- Fc1ccc(-n2ncc3c(NCCc4ccccc4)ncnc32)cc1
→ ·	4.5
- CCCSc1nnc(NC(=O)c2nn(-c3ccc(Cl)cc3)ccc2=O)s1
→ -0.89	-0.01
- CC(C)c1ccc(N2CC(O)=C(c3nc4ccccc4n3C)C2=N)cc1
→ -0.84	-0.42
- CCOc1cccc2c1OCC(NS(=O)(=O)c1ccc3nc(-c4ccccc4)[nH]c3c1)C2 (configuration not stated)
→ ·	0.18
- COCCNC(=O)COCc1cc(-c2ccc3c(c2)OCO3)on1
→ ·	2.4
- O=c1oc2ccccc2c2c1Sc1ccccc1N2
→ -1.2	·
- CCOCCOC(=O)C1=C(C)NC2=C(C(=O)CCC2)C1c1ccc(C)cc1 (configuration not stated)
→ -0.74	-1
- CCN1CCN(c2csc3ccc(Cl)cc3c2=O)CC1
→ ·	0.03
- COc1cccc(CN2C(=O)c3ccccc3Sc3ccc(C(=O)OCC4CCCO4)cc32)c1 (configuration not stated)
→ ·	1.3
- Nc1nc(NCc2ccc(Cl)cc2)nc(N2CCCCC2)c1[N+](=O)[O-]
→ ·	0.94
- CCc1c(C#N)c(SCC(=O)c2ccc3c(c2)OCO3)nc2c1C(=O)CC(C)(C)C2
→ -5.6	-6.5
- CCOC(=O)C1=C(C)NC2=C(C(=O)CC(C)(C)C2)C1c1ccccn1 (configuration not stated)
→ 0.17	1.5
- O=C1CC(=O)Nc2cc(S(=O)(=O)Nc3ccccc3)ccc2N1
→ ·	5.8
- Cn1c(SCC(=O)N2CCN(c3ccccc3)CC2)nc2c(c1=O)SCC2
→ -0.66	0.49
- O=C(O)C1=CCCNC1
→ -1.7	1.3
- Clc1ccc(-c2noc(CC3CCCCC3)n2)cc1
→ -0.46	0.06
- CSc1nc(N)nc(C2COc3ccccc3O2)n1 (configuration not stated)
→ -1.3	·
- Cc1cc(Sc2ccc([N+](=O)[O-])cn2)c(Cl)cc1Cl
→ -1.3	·
- CCN(CC)S(=O)(=O)c1ccc2c(c1)nc(CN1CCN(S(=O)(=O)N(C)C)CC1)n2C
→ ·	1.5
- Cc1noc(C)c1C(=O)NNC(=O)c1ccc[nH]1
→ -1.9	·
- CSc1c(C#N)c(N)nc(SCC(=O)c2ccc(OC(F)F)cc2)c1C#N
→ -3.3	·
- Cn1cccc1Cc1nnc(SCC(=O)NCC2CCCO2)n1-c1ccc(Cl)cc1 (configuration not stated)
→ -2.1	-1.3
- Cc1cc(C)c(/C=N/Nc2ccc(C(F)(F)F)cc2[N+](=O)[O-])[nH]1
→ -2.3	·
- CCOC(=O)c1cc(-c2ccc(S(=O)(=O)Nc3c(C)cc(C)cc3C)s2)on1
→ ·	0.43
- CCN(CC)c1ccc(C2Nc3ccccc3NC3=C2C(=O)CC(C)(C)C3)cc1 (configuration not stated)
→ -0.96	-15
- COc1ccc(S(=O)(=O)N(C(=O)C(C)C)c2ccc3oc(=O)sc3c2)cc1
→ -2.1	1.1
- Cc1ccc(-c2noc(CNS(=O)(=O)c3ccc(C)cc3)n2)cc1
→ -0.17	1.2
- CCOC(=O)C1=C(C)Nc2nc(SC)nn2C1c1ccccc1Cl (configuration not stated)
→ 0.35	0.51
- COc1ccc(C2CC(=O)C3=C(C2)Nc2ccccc2NC3c2ccccc2OC)cc1 (configuration not stated)
→ 0.16	·
- CCCn1c(Cn2ccnc2C)nc2cc(NC(=O)c3cccs3)ccc21
→ 2.1	0.57
- CCOC(=O)c1nc(-c2ccc([N+](=O)[O-])cc2)no1
→ -2.3	·
- O=C(Nc1c(C(=O)c2ccc(Br)cc2)oc2ccccc12)c1csnn1
→ 0.76	-0.18
- CC(=O)Nc1ccc(NC(=O)c2nccnc2C(=O)O)cn1
→ 11*	·
- Cc1ccc(NS(=O)(=O)c2ccc3c(c2)NC(=O)C(C)CS3)cc1N(C)C (configuration not stated)
→ ·	0.87
- CCCN1CCN(c2cc3c(cc2F)c(=O)c(S(=O)(=O)c2cccc(Cl)c2)cn3C)CC1
→ ·	1.8
- CC(C)CNc1nc2c(c(=O)n(C)c(=O)n2C)n1Cc1ccc(Br)cc1
→ -0.4	·
- O=C(CCS(=O)(=O)c1cc2c3c(c1)CCN3C(=O)CC2)NCCC1=CCCCC1
→ ·	0.78
- OC(CN1c2ccccc2Sc2ccccc21)Cn1nnc2ccccc21 (configuration not stated)
→ -0.49	·
- CCc1ccc(S(=O)(=O)Nc2ccc(-c3ccc(OC)nn3)cc2)s1
→ ·	2.6
- O=C(CSc1nc2cc3c(cc2c(=O)n1Cc1ccco1)OCO3)c1ccc(Br)cc1
→ ·	0.07
- CC(C)CNC(=O)c1sc(=S)n(-c2ccc(Cl)cc2)c1N
→ 2.6	0.75
- COc1ccc(NC(=O)CC(C)=O)cc1
→ -1.1	·
- COc1ccc(N2CCN(S(=O)(=O)c3ccc(N4CCCCS4(=O)=O)cc3)CC2)cc1
→ ·	0.38

# Sorted by formula weight (highest first): part of the list above
# Order of values – CDC25B-CDK2 inh	HIV TAR-Tat
- COc1ccc(S(=O)(=O)N(C(=O)C(C)C)c2ccc3oc(=O)sc3c2)cc1
→ -2.1	1.1
- Cc1cc(Sc2ccc([N+](=O)[O-])cn2)c(Cl)cc1Cl
→ -1.3	·
- CC(=O)Nc1ccc(NC(=O)c2nccnc2C(=O)O)cn1
→ 11*	·

# New compounds follow.
# Order of values – CDC25B-CDK2 inh	HIV TAR-Tat
- CCc1ccc(C2c3c(-c4ccccc4O)n[nH]c3C(=O)N2CC2CCCO2)cc1 (configuration not stated)
→ -1.4	1.1
- Cn1cccc1Cc1nnc(SCC(=O)NCC2CCCO2)n1C (configuration not stated)
→ -0.64	0.83
- O=C(Nc1sc2c(c1C(=O)NCC1CCCO1)CCCC2)c1csnn1 (configuration not stated)
→ -0.81	-0.48
- COc1cccc(C2CC(=O)NC(SCc3ccccc3)=C2C#N)c1 (configuration not stated)
→ -1.1	0.49
- O=C(COc1ccc(Cl)cc1)Nc1nnc(S(=O)(=O)N2CCc3ccccc32)s1
→ -1.5	2.2
- Fc1cnc(N2CCOCC2)nc1N1CCc2ccccc21
→ -0.84	1.1
- O=C(CSc1ncnc2c1sc1nc(N3CCOCC3)c3c(c12)CCCC3)Nc1ccccn1
→ 0.59	-1.6
- N#C/C(=C\c1ccc(Cl)cc1)c1nc2ccccc2s1
→ -0.09	·
- Cc1ccc(-c2nc3ccccc3c3nnc(SC(C)C(=O)N4CCCC4)n23)cc1 (configuration not stated)
→ ·	0.37
- Oc1ccccc1CNc1nc2c(s1)CCc1ccccc1-2
→ -1.5	1.1
- Cc1ccc(C(=O)O)cc1N1CC(O)=C(c2nc3ccccc3s2)C1=N
→ -0.95	0.45
- Cn1ccnc1SCC(=O)Nc1ccccc1Br
→ -3	-0.42
- COCCNC(=O)Cn1ncc2c1-c1ccccc1OC2
→ -2.1	0.36
- COc1ccc2nc3oc(C(=O)Nc4ccc5c(c4)OCCO5)cc3cc2c1
→ 2.8	·
- Cc1ccc(C(=O)C2(C)C3c4cc(Br)ccc4OC(=O)C32C(=O)c2ccco2)cc1 (configuration not stated)
→ 0.01	·
- CCOC(=O)c1[nH]c2c(C)cccc2c1CCN1C(=O)c2ccccc2C1=O
→ -3.7	·
- COCCNC(=O)CSc1nc(-c2ccccc2)nc2cc(=O)[nH]n12
→ ·	2.1
- Cc1ccc(Nc2nc3ccccc3c(=O)s2)cc1
→ -0.63	·
- COc1ccccc1C1C2=C(CCCC2=O)Nc2nnnn21 (configuration not stated)
→ -1.5	-2.7
- O=C(NC1CCCCC1)c1ccc(-n2ccc3ccccc32)s1
→ ·	1.2
- Cc1ccc(C(CNC(=O)c2oc3ccc(Cl)cc3c2C)N(C)C)o1 (configuration not stated)
→ -2.5	0.72
- CC1CC(C)CN(c2c(-c3ccccc3)c(=O)c2=O)C1 (configuration not stated)
→ ·	2.1
- COc1ccc(S(=O)(=O)c2cnc3ccc(C)cc3c2OC)cc1
→ 0.08	1.2
- CCCS(=O)(=O)c1ncc(Cl)c(C(=O)Oc2ccc(C)cc2C)n1
→ -1.6	-0.01
- CNC(=O)Cn1ncc2c3ccccc3n(Cc3ccccc3)c2c1=O
→ -3.6	0.87
- CCOC(=O)c1sc2ncnc(Oc3ccc(C)cc3)c2c1C
→ ·	0.72
- CCc1nnc(NC(=O)C2CCN(c3ncnc4onc(C)c34)CC2)s1
→ ·	0.6
- CC1=Nc2cc(C(=O)N3CCCC3)ccc2Sc2ccc(C)cc21
→ 1.3	-0.1
- COc1ccc(NC2CCCCC2NS(=O)(=O)c2ccccc2)cc1 (configuration not stated)
→ -2.5	3.1
- Cc1ccc(S(=O)(=O)c2cnc3cc4c(cc3c2N2CCOCC2)OCCO4)cc1
→ -1.1	-1.2
- Cn1nc(C(=O)N(Cc2ccco2)C2CCCCC2)c2c1-c1ccccc1OC2
→ -0.45	0.7
- COc1ccc2[nH]c(=O)c(=O)[nH]c2c1
→ -0.17	1.3
- COC(=O)c1cc2oc3ccccc3c2n1CC(=O)Nc1ccc(N(C)C)cc1
→ -1.4	-0.02
- CS(=O)(=O)Nc1cccc(C2=NN(C(=O)CCCC(=O)O)C(c3cccc(F)c3)C2)c1 (configuration not stated)
→ -2.7	-0.31
- CC12COC3(C#N)CC1CCC32C (configuration not stated)
→ -2	·
- COc1ccc(OCc2nc(-c3ccc(S(=O)(=O)N4CCCC4)cc3)no2)cc1
→ ·	1.6
- Clc1cccc(CN2CCc3nc(Nc4ccc5c(c4)OCO5)ncc3C2)c1
→ ·	-0.22
- CCOCCCNC(=O)C1CCCN(c2nn3c(=O)c4c(nc3s2)CCCC4)C1 (configuration not stated)
→ ·	0.81
- Cc1c(NC(=O)N2c3ccccc3Sc3ccccc32)c(=O)n(-c2ccccc2)n1C
→ -5.7	·
- COc1ccc(O)c(C2=NN3C(C2)c2cc(Br)ccc2OC3c2ccsc2)c1 (configuration not stated)
→ -0.01	-9.1
- c1coc(-c2nnc(SCc3nc4ccccc4[nH]3)o2)c1
→ 4	-2.9
- O=C(CSc1nc(-c2cccs2)cc(C(F)(F)F)n1)NCCCn1ccnc1
→ -1.1	-0.88
- CCCCCn1c(COC)nc2ccccc21
→ -0.92	1.3
- CC1CC(C)CN(C(=O)Cn2c(=O)n(CCC(=O)NCc3ccco3)c(=O)c3sccc32)C1 (configuration not stated)
→ -0.35	·
- CCOC(=O)Cn1c(C)nc2ccccc21
→ 0.79	-0.04
- CN1CCN(C(=O)Cn2ncn3cccc3c2=O)CC1
→ -2.5	1.4
- O=C(NCC(c1ccco1)S(=O)(=O)c1ccc(F)cc1)C1CCCCC1 (configuration not stated)
→ ·	1.8
- CCOC(=O)c1sc(N2C(=O)C(=O)/C(=C(/O)c3ccccc3)C2c2ccccc2)nc1C (configuration not stated)
→ -2.9	1.4
- Cc1c(C(=O)NCCC2=CCCCC2)sc2nc3n(c(=O)c12)CCC3
→ ·	2.3
- COc1ccc(N)cc1-n1cnnn1
→ -1.7	0.99
- COc1ccc2c(c1)CC(C(=O)NCCCN1CCCC1=O)CO2 (configuration not stated)
→ ·	0.24
- O=C(Cn1cnc2ccccc2c1=O)NCc1ccccc1
→ -1.3	·
- O=C(Nc1ccccc1)c1cc([N+](=O)[O-])ccc1Cl
→ -2.8	0.86
- O=C(Cn1cnc(S(=O)(=O)N2CCOCC2)c1)NCc1cccs1
→ ·	0.08
- CCCCC(=O)Nc1ccc2nsnc2c1
→ -2.6	0.06
- CCc1nn(C(CC)C(=O)NC2CCCCC2)c(=O)c2cc3occc3n12 (configuration not stated)
→ -1.4	-0.17
- O=C(CCCC(=O)OCC(=O)c1ccc(Cl)c([N+](=O)[O-])c1)Nc1ccccc1
→ -1.2	·
- Cc1nc(N2CCCC2)cc(N2CCN(S(=O)(=O)c3cc(C)c(C)cc3C)CC2)n1
→ 1.5	0.75
- COC(=O)c1cnc(N2CCN(C)CC2)c2ccccc12
→ ·	0.65
- COC(=O)C1=C(C)NC2=C(C(=O)CC(c3ccc(OC)cc3)C2)C1c1ccncc1 (configuration not stated)
→ -1.9	0.42

# Next part, starting with the last 6 of the part before.
# Order of values – CDC25B-CDK2 inh	HIV TAR-Tat
- CCCCC(=O)Nc1ccc2nsnc2c1
→ -2.6	0.06
- CCc1nn(C(CC)C(=O)NC2CCCCC2)c(=O)c2cc3occc3n12 (configuration not stated)
→ -1.4	-0.17
- O=C(CCCC(=O)OCC(=O)c1ccc(Cl)c([N+](=O)[O-])c1)Nc1ccccc1
→ -1.2	·
- Cc1nc(N2CCCC2)cc(N2CCN(S(=O)(=O)c3cc(C)c(C)cc3C)CC2)n1
→ 1.5	0.75
- COC(=O)c1cnc(N2CCN(C)CC2)c2ccccc12
→ ·	0.65
- COC(=O)C1=C(C)NC2=C(C(=O)CC(c3ccc(OC)cc3)C2)C1c1ccncc1 (configuration not stated)
→ -1.9	0.42
- Cc1cc(C)c2oc(-c3ccc(NC(=O)c4ccc([N+](=O)[O-])o4)cc3)nc2c1
→ -2.6	0.15
- OCCN1CCN(CCCN2c3ccccc3C=Cc3ccccc32)CC1
→ -0.7	·
- COc1ccc(/C(O)=C2\C(=O)C(=O)N(c3nnc(C)s3)C2c2ccc(C(C)C)cc2)cc1 (configuration not stated)
→ -3.6	0.12
- Clc1ccc(Cn2nnc(N3CCCCC3)n2)cc1
→ -0.31	·
- CC1CCN(C(=O)Cn2nnc3sc4c(c3c2=O)CCCC4)CC1
→ 1	1.3
- CC1CCCN(C(=O)c2cc(-c3ccco3)[nH]n2)C1 (configuration not stated)
→ ·	-6.2
- COc1ccc(Cc2nn3c(Cn4cnc5ccccc54)nnc3s2)cc1
→ -0.28	0.93
- O=C(NC(NC(=S)Nc1ccc(Cl)c(Cl)c1)C(Cl)(Cl)Cl)c1ccc(F)cc1 (configuration not stated)
→ -1.4	·
- CC1(C)CC(=O)c2c(oc3ccc(NS(=O)(=O)c4ccc5c6c(cccc46)C(=O)N5)cc23)C1
→ -1.7	·
